# Screening results: PubChem BioAssay, several laboratories
# A1 inh: inhibitors of the anti-apoptotic protein A1, read as caspase activation. caspase activation, % (concentration not given with the values). MEF A1-2A-BIM cells, Caspase-Glo 3/7 luminescence, 3 h; percent of clofoctol response, vehicle zero. 330,000 compounds, 0.066% hits;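 active means over half of replicate activation scores above 10%, or exactly half above 10 with the replicate mean above 10; inconclusive means replicate mean below 10 yet half the replicates above 10; inactive means over half of replicates below 10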;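 further: wells of about 30 µL received 50 nL stock; many hits fall short of the cut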
# HNF4A DNA FP: change in binding of human HNF4 alpha to DNA | P41235 | HNF4a-FITC DNA binding, fluorescence polarization, 1 h | activity change, % at 10 µM | 360,000 compounds, 0.3% hits | AID 1224865; in the data active means activity change above about 30%, passing the limit was not always enough;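 further: controls were the assay level and a saturating level of protein; the project sought stronger binding though the title names inhibitors; some compounds called inactive have numbers as strong as hits; positive values seem to mean higher polarization but the record does not say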
# Target sequence (P41235 whole entry, looked up): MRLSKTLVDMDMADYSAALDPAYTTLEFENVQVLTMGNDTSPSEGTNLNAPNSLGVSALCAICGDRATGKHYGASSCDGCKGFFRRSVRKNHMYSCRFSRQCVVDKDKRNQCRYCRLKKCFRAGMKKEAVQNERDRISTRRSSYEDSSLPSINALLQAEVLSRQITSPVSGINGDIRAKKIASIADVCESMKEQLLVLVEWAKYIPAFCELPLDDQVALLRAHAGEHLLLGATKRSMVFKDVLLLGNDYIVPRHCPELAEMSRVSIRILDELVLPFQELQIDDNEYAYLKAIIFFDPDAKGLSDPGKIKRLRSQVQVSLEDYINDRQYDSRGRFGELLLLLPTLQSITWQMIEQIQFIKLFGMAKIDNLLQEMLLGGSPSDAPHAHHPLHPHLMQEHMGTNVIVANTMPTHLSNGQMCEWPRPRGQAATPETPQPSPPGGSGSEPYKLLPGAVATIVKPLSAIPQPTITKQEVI
# LANA-H2A inh: blocks KSHV LANA binding to histone H2A/H2B; cell-free LANA-H2A/H2B peptide, fluorescence polarization; AID 2629; 320,000 compounds, 0.6% hits; inhibition, % (test concentration not listed); Q9QR71; in the data active means inhibition mostly above about 10%, no sharp cut-off; inactive means mostly below about 6.7%;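 further: stock transfer was 7.5 nL into about 10 µL; 0% = median of vehicle wells and 100% = median of positive control wells; one replicate is shown; the record names a cut of 25% in any replicate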
# B2AR ag: human beta-2 adrenergic receptor agonism by FAP. 340,000 compounds, 0.43% hits. response, % (no concentration beside the values). Am2.2-beta2AR cells, FAP receptor internalization, flow cytometry; reference of the scale not given here. AID 504454;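 active means response above a set limit, near 3 SD of response in nonfluorescent compounds, cut at about 42% in these data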;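 further: stock transfer was 100 nL into about 11 µL; a reference agonist was the positive control; negative values mostly stem from fluorescent compounds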
# Vif TR-FRET: HIV-1 Vif–A3G interaction blockers – biochemical, TR-FRET, GST-Vif 1-94, biotin-A3G peptide, dose response retest, primary screen (AID 1117319); TR-FRET GST-Vif / biotin-A3G peptide binding; higher % means a stronger effect; test concentration not given here; strong numbers were not always called active; inhibition, %, or IC50 in µM where a hit was titrated; 260,000 compounds, 0.57% hits;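 active means above the screen mean plus three standard deviations and confirmed in dose response; inconclusive means results disagree or hit not tested in dose response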;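 further: Vif residues 1-94 fused to GST binding biotinylated APOBEC3G peptide 110-148; 0% = full assay without inhibitor and 100% = GST in place of GST-Vif; retest series ran down from 100 µM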
# UCH37 inh: inhibitors of human deubiquitinating enzyme UCH37; Q9Y5K5; purified proteasome/UCH37, Ub-AMC cleavage fluorescence; inhibition, % (no concentration beside the values); 330,000 compounds, 0.33% hits;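 active means mean of two replicates above 20%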;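 further: 0% = compound-free wells with enzyme and 100% = wells lacking proteasome; stock transfer was 100 nL into about 20 µL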
# Target sequence (Q9Y5K5 whole entry, looked up): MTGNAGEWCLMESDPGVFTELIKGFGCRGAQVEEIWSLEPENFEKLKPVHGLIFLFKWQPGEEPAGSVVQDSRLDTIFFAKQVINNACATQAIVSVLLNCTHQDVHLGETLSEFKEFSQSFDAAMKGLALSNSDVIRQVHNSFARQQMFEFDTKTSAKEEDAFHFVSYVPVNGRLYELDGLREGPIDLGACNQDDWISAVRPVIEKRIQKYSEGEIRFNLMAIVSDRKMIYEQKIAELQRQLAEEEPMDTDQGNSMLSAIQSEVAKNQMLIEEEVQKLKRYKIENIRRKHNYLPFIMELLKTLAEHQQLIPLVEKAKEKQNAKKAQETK
#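 Test system – human UCH37 enzyme supplied as purified proteasome complex · Incubation – 30 min preincubation with enzyme, 25 min cleavage at room temperature · Detection – AMC fluorescence from Ub-AMC cleavage, excitation 355 nm, emission 460 nm · Benchmarks – no-proteasome wells (full inhibition) and compound-free wells (no inhibition)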
# E coli growth: inhibitors of Escherichia coli growth; 330,000 compounds, 0.21% hits; OD600 absorbance (no concentration beside the values); OD600, 23 h; hits give low values;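 active means OD600 absorbance below the run mean of sample wells minus 3.6 SD, in any replicate, cut at about 0.56 in these data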;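 further: stock transfer was 300 nL into about 60 µL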
# Active calls of the source: *; ? = inconclusive; / = no result given; & = joins results of further samples.
Structure,A1 inh,HNF4A DNA FP,LANA-H2A inh,B2AR ag,Vif TR-FRET,UCH37 inh,E coli growth
CC(=O)Nc1cc(C(=O)N2CCN(C)CC2)ccc1S(=O)(=O)c1ccc(C)cc1,-0.7,0.3,2.5,4,24%,-0.1,0.67
Cc1ccc(N2CC(C(=O)Nc3ccc(S(=O)(=O)N4CCOCC4)cc3)CC2=O)cc1Cl (stereo not given),1.3,-1.2,-4.4,-1,0%,1.5,0.71
O=C(Nc1nnc(Cc2ccccc2)s1)C1CCC1,-0.1,3.5,1.8,-5,6%,3.0,0.69
COc1ccc(N2CCN(C(=O)CNC(=O)c3cccc(Br)c3)CC2)cc1,0.6,-1.0,3.2,-4,10%,-2.0,0.69
CCOC(=O)c1cnc(-c2ccccc2)[nH]c1=O,-1.0,1.2,-3.3,10,6%,2.0,0.66
CC1(C)CC(=O)C(C(=S)Nc2ccc(F)cc2)=C(NCCN2CCOCC2)C1,0.6,-1.7,0.6,-5,-6%,7.1,0.68
O=C1C=C(c2ccc(Cl)c(C(F)(F)F)c2)C[C@@H](c2ccc3c(c2)OCO3)C1,-0.9,-1.4,-1.5,1,/,1.1,/
Cc1ccccc1S(=O)(=O)Cc1ccc(C(=O)NCCN(C)Cc2ccccc2)o1,0.1,0.3,-2.7,-2,16%,2.6,0.63
N/C(=N\OC(=O)c1ccc(F)cc1)c1ccccc1,-8.9,3.3,-2.1,-4,-2%,4.7,0.64
CC(C)NC(=O)c1ccccc1NS(=O)(=O)c1ccc(Br)s1,/,3.1,/,12,/,2.1,0.72
O=C(COC(=O)c1cnccn1)Nc1ncc(C(F)(F)F)cc1Cl,0.2,5.5,-1.2,15,9%,-4.6,0.66
C=CCNC(=S)NNC(=O)C(CCCC)CC(O)COCC(C)C (stereo not given),0.4,1.7,-7.1,4,/,3.2,0.68

# Two of these compounds, reformatted:
# Each structure is followed by: A1 inh	HNF4A DNA FP	LANA-H2A inh	B2AR ag	Vif TR-FRET	UCH37 inh	E coli growth
COc1ccc(N2CCN(C(=O)CNC(=O)c3cccc(Br)c3)CC2)cc1
 : 0.6	-1.0	3.2	-4	10%	-2.0	0.69
CCOC(=O)c1cnc(-c2ccccc2)[nH]c1=O
 : -1.0	1.2	-3.3	10	6%	2.0	0.66

# Continuation.
Structure,A1 inh,HNF4A DNA FP,LANA-H2A inh,B2AR ag,Vif TR-FRET,UCH37 inh,E coli growth
Cn1c(=O)cc(SCC(=O)N2CCOCC2)c2ccc(Cl)cc21,0.4,-2.8,0.6,-22,?,-0.1,0.69
O=C(/C=C/c1ccc(Cl)cc1Cl)c1nc2ccccc2[nH]1,-0.3,2.5,0.9,-4,-3%,-0.1,0.69
O=C(N/N=C/c1cccnc1)c1cccc(N2CCCC2=O)c1,-0.3,-0.8,3.7,6,10%,/,/
COc1ccccc1N(CC(=O)NC1CCCC1)C(=O)c1oc(C(C)(C)C)cc1C,2.9,2.4,2.1,-5,4%,1.4,0.67
COc1ccccc1OCCn1c(=O)sc2ccccc21,0.3,-1.7,1.4,-2,6%,3.6,0.72
CC1C=CCC2C(=O)N(c3ccccc3OC(=O)c3ccco3)C(=O)C12 (stereo not given),-0.8,13,5.1,8,6%,4.3,0.69
Cc1onc(-c2ccccc2Cl)c1C(=O)Nc1ccc(S(=O)(=O)NCC2CCCO2)cc1 (stereo not given),-0.9,0.8,0.4,4,3%,2.4,0.71
O=S(=O)(c1cccc(C(F)(F)F)c1)N1CCC(O)(c2cccnc2)CC1,-0.3,0.7,3.2,-3,-9%,0.1,0.68
COc1ccc(C(=O)COc2ccc(C(C)=O)cc2OC)cc1OC,/,0.7,/,-8,-4%,0.1,0.67
O=C(NC1CCCC1)c1cccc(S(=O)(=O)N2CCCCC2)c1,0.0,1.7,1.2,-1,0%,1.7,0.7
C=CCn1c(=O)c(C(=O)Nc2cc(C)ccn2)c(O)c2ccccc21,0.8,4.8,-4.6,-6,-23%,-5.5,0.62
O=C(NNc1nc(Nc2ccccc2)nc(N2CCOCC2)n1)Nc1ccc(Cl)cc1,-0.1,6.3,-1.0,1,6%,1.6,0.68
CCC(C)NC(=O)c1cn(CC)c2ccc(S(=O)(=O)N3CCCCCC3)cc2c1=O (stereo not given),1.0,1.7,3.0,-6,/,1.0,0.6
O=C1CCC(=O)N1c1ccc(S(=O)(=O)Nc2cccc([N+](=O)[O-])c2)cc1,0.4,-3.8,8.2,0,/,4.5,0.7
CC(C)(C)NC(=O)CN(CCc1ccccc1)C(=O)c1csnn1,0.9,1.0,-0.9,-6,16%,5.7,0.7
CSCCC(NC(=O)c1ccccc1)C(=O)Nc1ccc(NC(C)=O)cc1 (stereo not given),1.4,/,-4.7,/,5%,-1.9,0.7
COc1cccc(C(C(=O)NC2CCCC2)N(CC2CCCO2)C(=O)Cc2cccs2)c1 (stereo not given),0.6,1.7,1.1,1,-10%,4.1,0.66
CCO/N=C/C(=O)Nc1ccc(F)cc1F,0.1,2.0,7.9,3,-4%,/,/
Cc1ccc(C)c(N2CCN(C(=O)CCc3nc4ccccc4[nH]3)CC2)c1,-0.1,1.9,-0.5,17,1%,2.5,0.79
C=CCNC(=O)c1ccc(C(=O)c2ccccc2)cc1,0.1,3.8,-0.1,-5,-5%,2.9,0.64
O=C(CCNc1n[nH]c(=O)[nH]c1=O)N/N=C\c1ccc(Br)cc1,-0.6,3.7,2.8,-5,0%,/,/
COc1ccc(C(CNC(=O)c2cccc(NS(=O)(=O)c3ccc(C)c(F)c3)c2)N(C)C)cc1 (stereo not given),?,-0.3,3.4,-1,2%,-3.2,0.6
CCCCNC(=O)c1onc(CSc2cccc(Cl)c2)c1C(=O)O,0.0,-4.1,9.6,1,-4%,0.8,0.66
O=C(Nc1ccc2c(c1)OCCO2)c1ccc(NC(=O)C2CCCO2)cc1 (stereo not given),0.0,-0.1,1.5,6,-11%,3.8,0.7
Cc1nn(-c2ccc(C(=O)OC(C)C)cc2)c(C)c1[N+](=O)[O-],-2.4,0.0,-2.4,-1,/,3.8,0.72
CCCCCn1c(Sc2ccccc2)nc2c1c(=O)[nH]c(=O)n2C,0.0,3.0,-4.8,-10,-5%,2.5,0.7
CN(CC(=O)Nc1ccc(F)c(F)c1F)C(=O)CN1C(=O)NC2(CCCC2)C1=O,0.6,-4.2,4.1,7,-1%,-0.3,0.69
Nc1nc(CN2CCCCCC2)nc(Nc2ccccc2)n1,0.0,1.1,7.1,-4,1%,0.8,0.7
O=C(Nc1cc(S(=O)(=O)N2CCOCC2)ccc1N1CCCCC1)c1ccc(Cl)cc1,0.0,1.0,6.4,10,-11%,3.8,0.73
CCOc1ccc2nc(N3CCCCCC3)sc2c1,-3.8,0.7,5.0,5,27%,-2.5,0.68
COC(=O)c1cc(=O)nc2scc(C)n12,-1.0,-0.3,-3.6,-11,6%,1.3,0.76
C/C(=N\NC(=O)c1cccc(N2CCCC2=O)c1)c1ccc(N)cc1,0.4,-2.6,-1.6,-1,-5%,/,/
Cc1nnc(SCC(=O)Nc2cccc(S(=O)(=O)N3CCCCC3)c2)s1,0.6,-1.8,-6.5,0,/,1.0,0.69
CN(Cc1cn(C)nc1-c1ccccc1F)CC1CCN(Cc2ccccc2)CC1,-0.4,-2.2,-0.4,-3,-5%,3.0,0.69
COc1ccc(/C=N/NC(=O)CCC(=O)Nc2ccc(F)cc2)c(OC)c1,0.9,-2.9,-2.0,4,/,/,/
O=C1c2ccccc2C(=O)N1CC(=O)N1c2ccccc2CCc2ccccc21,0.2,-2.9,3.7,-2,-14%,6.5,0.74
COCCN(C(=O)c1cc2c(s1)CCCCC2)c1c(N)n(CC(C)C)c(=O)[nH]c1=O,-0.7,3.4,1.4,-5,-9%,3.3,0.65
CC(C)(C)C(=O)NNC(=O)c1cc(C(C)(C)C)nn1Cc1ccccc1,0.0,-0.7,-4.1,-6,5%,2.0,0.7
CCCN(C(=O)CSc1nc2cc(S(=O)(=O)N(CC)CC)ccc2o1)C1CCS(=O)(=O)C1 (stereo not given),1.2,-2.5,/,-3,-5%,3.6,0.64
COc1ccc(Cn2nnnc2C(c2ccc(F)cc2)N2CCN(C3CCCC3)CC2)cc1 (stereo not given),0.0,-2.2,0.2,-9,4%,3.6,0.7
COc1cc2c(cc1OC)CN(C(=O)CSc1nc3[nH]ncc3c(=O)n1-c1ccccc1)CC2,0.3,/,-5.3,/,11%,-2.5,0.78
Cc1ccc(-c2nnn(CC(=O)N(c3ccc(F)cc3)C(C(=O)NC3CCCC3)c3ccco3)n2)o1 (stereo not given),-0.9,0.9,-2.2,-2,86µM*,-0.2,0.73
COc1cc(C(=O)OCCc2c(C)nc3nc[nH]n3c2=O)cc(OC)c1OC,0.9,1.1,2.4,-5,-4%,1.0,0.67
O=C(COC(=O)CCSc1ccccc1Cl)Nc1ccc(F)cc1F,0.2,2.0,-1.5,8,-1%,1.2,0.67
CCOC(=O)c1ccc(Nc2nc(N3CCOCC3)nc(N3CCOCC3)n2)cc1,0.0,4.0,-2.2,1,/,1.2,0.72
C=CCNCCOc1ccc(C)cc1[N+](=O)[O-],0.9,2.1,0.7,6,-6%,/,/
COc1cc(NC(=O)c2ccc(C)cc2)ccc1NC(=O)c1cc2ccccc2o1,-0.3,-3.2,3.3,-1,4%,-217,0.67
O=C(NCCc1ccc(F)cc1)c1cc(=O)c2ccccc2o1,0.4,2.2,-9.7,5,6%,2.1,0.7
Cc1cc2c(=O)n(C)c(SCC(=O)c3cc4ccccc4o3)nc2s1,1.6,-3.1,1.3,6,4%,1.9,0.73
O=C(NCc1ccc2c(c1)OCO2)c1ccc(CS(=O)(=O)c2ccc(Br)cc2)o1,-1.9,-1.8,1.8,-15,-3%&-3%,4.4,0.72
CCc1cc2c(=O)c(-c3ccc4c(c3)OCCO4)coc2cc1OS(C)(=O)=O,-0.6,0.1,2.4,16,/,1.6,0.68
Cc1cc(Br)ccc1NC(=O)CSc1nnc(CN2CCOCC2)n1C,0.0,1.6,-3.1,10,/,-1.0,0.65
COc1ccc(/C=C/c2c([N+](=O)[O-])c(=O)n(C)c(=O)n2C)cc1O,-1.8,-1.0,-4.0,2,11%,10,0.73
O=C(NCC1CCCN1S(=O)(=O)c1cccs1)c1ccc(F)c(F)c1 (stereo not given),-0.1,-0.1,6.5,-1,4%,2.0,0.63
COc1ccc(Nc2ncnc3sccc23)c(OC)c1,-1.1,7.3,-1.0,7,-1%,4.1,0.63
COCC(=O)Nc1ccc(C(=O)Nc2ccccc2Cl)cc1,-0.1,/,-0.1,/,0%,3.2,0.69
S=C(Cc1ccccc1)Nc1ccccc1,/,2.5,/,-1,4%,1.5,0.68
O=C(Nc1ccccc1)OCC(CN1CCCCC1)OC(=O)Nc1ccccc1 (stereo not given),1.2,6.6,-4.7,10,/,0.2,0.68
Cc1c(Cc2ccccc2)c(=O)oc2c(C)c(OCC(=O)Nc3ccc(C#N)cc3)ccc12,?,1.3,8.5,3,12%,-86,0.67
COc1ccc(OCC(=O)Nc2ccc(S(=O)(=O)N(C)c3ccccc3)cc2)cc1,/,0.9,/,-2,/,3.5,0.72
CC(=O)Nc1ccc(S(=O)(=O)NCC(=O)N2CCN(S(=O)(=O)c3cccs3)CC2)cc1,-0.4,0.4,1.6,-1,3%,5.9,0.67
Cc1ccc(N2CC(NC(=O)C3CC3)CC2=O)cc1 (stereo not given),0.8,-1.1,3.4,7,-2%,2.4,0.68

# No enrichment for hits. About 2.1% of those tested had a hit in this group.
